Rce1 inhib = yeast Rce1p protease inhibitors, primary screen, biochemical, fluorescence, cell-free homogeneous; yeast membranes, quenched prenylated peptide cleavage fluorescence; calls only; CAAX prenyl protease 2 (Saccharomyces cerevisiae (strain ATCC 204508 / S288c)), Q03530; 0.27% of 290,000 active;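 active = fall in fluorescence gain of 50% or more versus controls, with final raw signal at or below 3038400; inconclusive = same 50% fall but final raw signal above 3038400; inactive = fall in fluorescence gain under 50%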;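 note: plate controls were neutral control wells for no effect and wells lacking membranes for full effect; tested at 10 µM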
Target sequence (Q03530 whole entry, looked up): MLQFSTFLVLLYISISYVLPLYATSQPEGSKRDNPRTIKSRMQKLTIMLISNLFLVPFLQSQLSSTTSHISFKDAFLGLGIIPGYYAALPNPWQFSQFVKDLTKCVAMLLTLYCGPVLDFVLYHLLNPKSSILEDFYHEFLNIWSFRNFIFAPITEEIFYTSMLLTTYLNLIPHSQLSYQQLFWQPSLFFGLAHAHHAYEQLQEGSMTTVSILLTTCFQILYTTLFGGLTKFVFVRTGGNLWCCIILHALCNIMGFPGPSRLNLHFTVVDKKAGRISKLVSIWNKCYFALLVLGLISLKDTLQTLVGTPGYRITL
PABP FP inh = PABP poly(A) RNA binding inhibitors, primary screen, biochemical, fluorescence polarization, uHTS | Polyadenylate-binding protein 1 (Homo sapiens), P11940 | inhibition, % at 35 µM | 1% of 290,000 active | AID 2014, 2009;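 active = 50% or more with normal probe brightness, or confirmed in later tests; inconclusive = above 50% with abnormal brightness, or retests that disagree; inactive = below 50% or failed in later tests; about a fifth of its hits are not listed in these tables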;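 note: calls also rest on retests at 20 µM and on dose response follow-up; controls were probe without protein and protein plus probe with vehicle; some compounds called inactive have numbers as strong as hits; many hits fall short of the cut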
CSC inhib = cancer stem cell viability inhibitors, primary screen, luminescence; inhibition, % at 7.5 µM; 1.1% of 300,000 active; cancer stem cell-like cells viability;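 active = mean at 75% or more and at least half the replicates too; inconclusive = mean and replicates disagree; tested in HMLE shEcad cells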;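 note: 0% = median of negative and 100% = median of positive control wells; the first replicate is given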
Env fusion inh = inhibitors of HIV-1 Env-driven cell-cell fusion, primary screen, HeLa-JRFL effector, CEM21 target cells, luciferase; 1.1% of 360,000 active; inhibition, % at 12.3 µM; AID 651610, 2012;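 active = mean replicate inhibition score of at least 50 and every replicate individually at or above 50; inconclusive = only one of the two criteria met; inactive = mean below 50 and not all replicates reaching 50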;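 note: 0% = plate neutral controls and 100% = maraviroc near 300 nM; one replicate is shown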
UUG fidelity = modulators of yeast start codon fidelity, primary screen, whole organism, S. cerevisiae, single point, plate reader. S. cerevisiae UUG-firefly luciferase reporter, luminescence/redox ratio. activity score, % at 18.7 µM. 0.13% of 350,000 active. AID 602363, 2012;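 active = replicate mean at a twofold rise or more, about +100% in these data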;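 note: firefly luciferase made from a UUG start codon reports start codon fidelity; reporter light over untreated wells divided by growth signal over untreated wells; some hits fall short of that in this replicate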
eIF4H FP inh = human eIF4H binding inhibitors, primary screen, translation initiation inhibitor project, biochemical, uHTS, fluorescence polarization. eIF4H fluorescence polarization binding assay. inhibition, % at 35 µM. 0.94% of 290,000 active;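 active = 50% or more with normal probe brightness, or confirmed in later tests; inconclusive = above 50% with abnormal brightness, or retests that disagree; inactive = below 50% or failed in later tests; about a fifth of its hits are not listed in these tables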;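 note: calls also rest on retests at 20 µM and on dose response follow-up; 0% = protein and probe with vehicle and 100% = probe without protein; strong numbers were not always called active; many hits fall short of the cut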
MT1-MMP act inh = blockers of MT1-MMP proenzyme processing, primary screen, HT1080 RFP-PRO-GFP cells, GFP/RFP fluorescence | Matrix metalloproteinase-14 (Homo sapiens), P50281 | GFP/RFP ratio fluorescence, overnight; percent of plate control window, DMSO zero | GFP/RFP ratio change, % at 20 µM | 0.061% of 360,000 active | AID 651647, 2012;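 active = GFP/RFP ratio change of at least 30% with cell ATP level not reduced by more than half and red fluorescence within 50% of control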; note: strong numbers were not always called active
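Read-out: GFP/RFP fluorescence ratio; Test system: RFP-PRO-GFP reporter HT1080 cells; Compound dosing: single-point 20 µM compound, 1% DMSO; Times: overnight compound exposure at 37 °C.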
MT1-MMP act inh RFP = also measured in MT1-MMP act inh; calls as there; RFP signal change, %; measured here: RFP expression control read;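 0 = vehicle wells; hits needed this value within 50% of zero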
Starred values were filed as active, the others as inactive; i = inactive; ? = inconclusive; nt = not tested or not shown; & = joins results of further samples. Some of the compounds tested, so the mix of outcomes need not match the whole.

SMILES	Rce1 inhib	PABP FP inh	CSC inhib	Env fusion inh	UUG fidelity	eIF4H FP inh	MT1-MMP act inh	MT1-MMP act inh RFP
COc1ccc(-c2nc(C)c(C(C)=O)n2O)cc1	i	-9	-11	-238	-17	-11	1	-3
CCc1ccccc1NC(=O)CNC(=O)c1cn(Cc2ccccc2)nc1-c1cccnc1	nt	nt	-5	-23	10	nt	2	3
O=C(NNC(=S)Nc1cccc(C(F)(F)F)c1)c1cccc(Cl)c1	i	-2	1	24	nt	11	-8	-28
O=C(O)c1ccccc1NC(=O)c1cc2ccccc2oc1=O	i	3	nt	-27	-25	-1	7	0
c1cnc(NCCSSCCNc2ncccn2)nc1	nt	nt	nt	15	-13	nt	-4	2
COC(=O)c1cc(NC(=O)Nc2cc(OC)ccc2OC)cc(C(=O)OC)c1	i	5	-3	-50	-13	-6	6	1
CCN(CC)S(=O)(=O)c1cc(C(=O)Nc2cc(C)on2)c(Cl)cc1Cl	i	35	-16	-20	-10	50	-2	-2
CN(C(=O)c1ccc(Cl)c(S(=O)(=O)N2CCOCC2)c1)c1ccccc1C(=O)O	i	0	-20	nt	nt	-12	1	1
CSCC[C@H](NC(=O)C(C)Oc1ccc(Cl)cc1)c1nc2ccccc2[nH]1 (some centres undefined)	i	5	-3	9	-17	7	-3	-1
CCOC(=O)Nc1cc(C(=O)OC)ccc1C	i	1	-16	-70	-20	-5	0	-2
CN(C)NC1CC(=O)N(c2ccccc2)C1=O (centres undefined)	i	2	-8	3	0	0	2	4
COc1ccccc1OCC(=O)Nc1ccccc1C(=O)Nc1cccc(C(=O)O)c1	i	-5	-2	1	2	-11	-7	-1
Cc1ccccc1CS(=O)(=O)c1cn(CC(=O)N2CCOCC2)c2ccccc12	i	4	1	2	-14	-1	3	4
O[C@@H]1CN(C2CCN(Cc3ccccc3)CC2)CC[C@H]1N1CCCCCC1	nt	nt	nt	7	-10	nt	5	8
COc1ccc(OC)c(S(=O)(=O)Nc2ccccc2O)c1	i	nt	-5	-3	nt	nt	1	5
CC(=O)N1CCN(c2ccc(NCc3ccccc3)cc2)CC1	i	4	2	-62	nt	2	9	6
COc1ccc(NC(=O)CSc2nccn2C)c([N+](=O)[O-])c1	i	8	-12	-18	nt	-2	4	5
CSc1ncccc1C(=O)OCC(=O)Nc1ccc(S(=O)(=O)N2CCCC2)cc1	i	13	-15	5	nt	5	1	-2
CCOc1ccc(S(=O)(=O)NCCc2cn3ccccc3n2)cc1	i	7	-19	12	-10	4	2	-1
N=c1sccn1CC(=O)Nc1ccc(Cl)cc1[N+](=O)[O-]	i	32	1	-87	-20	-10	1	2
Cc1ccc(NCc2nc3ccccc3n2C)cc1C	i	1	-2	-84	-16	1	2	3
CCOC(=O)N1CCN(C(=O)CSCC(=O)Nc2nc(-c3ccc4c(c3)OCO4)cs2)CC1	nt	-2	nt	nt	-18	4	16	-3
CC(=O)c1cccc(N(CC(=O)Nc2cc(C)cc(C)c2)S(C)(=O)=O)c1	i	1	7	11	nt	2	1	-4
CS(=O)(=O)N(CC(=O)NCCc1ccccc1)C1CCCCC1	i	6	23	-55	12	0	-7	-2
Cc1ccc(/C=N/N=C2/NC(=O)C(CC(=O)Nc3ccc(Cl)cc3)S2)o1 (centres undefined)	i	44	-1	3	-18	2	9	-1
Cc1ccc(CN2CCCN(Cc3c(C)cc(C)cc3C)S2(=O)=O)cc1	i	28	32	13	7	23	0	5
Cn1ccc2cc(-c3ccc4ncnc(NCc5cccs5)c4c3)ccc21	nt	nt	nt	42	4	nt	-3	-25
C=CCn1c(SC(C)C(=O)NCc2ccc3c(c2)OCO3)nnc1C1CCCCC1 (centres undefined)	i	-1	51	nt	nt	8	-1	-3
O=C1c2ccccc2-c2ccc(C(=O)N3CCOCC3)cc21	i	-8	-15	-36	-15	2	-1	-1
CCOC(=O)Cn1c(N2CCOCC2)nc2c1c(=O)[nH]c(=O)n2C	i	-3	-12	nt	-1	-6	2	4
O=C(N/N=C/c1ccc(-c2ccccc2[N+](=O)[O-])o1)c1cncc(Br)c1	i	11	1	13	nt	10	3	1
Cc1ccc(S(=O)(=O)NNC(=O)c2ccccc2O)cc1	i	-1	nt	nt	nt	-2	-6	-2
Cc1ccc(-n2cc(C(C)(C)C)[nH]c2=S)cc1	i	-4	-8	-177	-25	-6	5	3
CCC(C)(C)n1nnnc1C(c1cccs1)N1CCN(Cc2ccccc2)CC1 (centres undefined)	i	8	3	nt	-5	-8	-5	-1
O=C(O)c1cc(NS(=O)(=O)c2ccc(NC3CCCCC3)c([N+](=O)[O-])c2)cc(C(=O)O)c1	i	14	-9	-1	nt	-6	2	2
Cc1cc(S(=O)(=O)N2CCN(c3ccccc3C)CC2)ccc1F	i	15	12	nt	-18	6	-3	-4
CC(=O)c1cccc(CN2CCCC(CCC(=O)NCc3ccc(F)c(F)c3)C2)c1 (centres undefined)	i	-2	-4	17	-7	-9	-3	4
CC(C)CNC(=O)c1cc([N+](=O)[O-])ccc1N1CCCCC1	i	14	-4	8	nt	0	1	-4
COC(=O)c1ccc(C(C(=O)NC2CCCCC2)N(Cc2ccc(F)cc2)C(=O)Cc2cccs2)cc1 (centres undefined)	i	1	4	19	-11	-3	-17	-15
CCCOc1cccc(C2C(C(=O)c3cc4ccccc4o3)=C(O)C(=O)N2c2cc(C)on2)c1 (centres undefined)	i	-1	-17	4	-11	1	5	7
C[C@@H]1CN([C@H](C)CO)C(=O)CCCn2nncc2CO[C@@H]1CN(C)S(C)(=O)=O	nt	nt	nt	-92	-1&2	nt	14	-6
CCCN(CCC)CC(O)Cn1c2ccccc2c2ccccc21 (centres undefined)	i	-15	nt	-48	nt	-15	2	1
Cc1ccc(S(=O)(=O)N2CCOCC2)cc1C(=O)Nc1ccc(-c2cn3ccsc3n2)cc1	i	-8	5	2	-13	-4	-2	-9
COc1ccc(CNC(=O)C2CCC(CNC(=O)[C@@H]3Cc4ccccc4CN3)CC2)cc1 (some centres undefined)	i	10	-2	-6	-20	3	3	3
CCNC(=S)/N=C(\N)Nc1nc(C)c2cc(C)ccc2n1	i	0	-6	-30	nt	-6	-6	-1
O=C(Oc1ccc(F)cc1C(=O)/C=C/c1cccs1)c1cccc([N+](=O)[O-])c1	i	-9	32	-475	-5	6	0	-15
O=C1N(Cc2ccccc2)CCCC12CCCN(Cc1ccccc1)C2=O	i	-17	-5	nt	-7	-4	1	0
O=C(CNc1cc(S(=O)(=O)N2CCCC2)ccc1OCC(F)(F)F)Nc1ccc(SC(F)F)cc1	i	7	10	nt	5	-9	3	-23
O=C(NCc1ccccc1)c1cc(C2CCCN(S(=O)(=O)c3ccccc3)C2)on1 (centres undefined)	nt	nt	nt	-2	-19	nt	-2	-2
CCCCn1c(N)c(N(CCOC)C(=O)c2cc3c(s2)CCCCC3)c(=O)[nH]c1=O	i	nt	-12	nt	7	nt	1	0

Carrying on.
SMILES	Rce1 inhib	PABP FP inh	CSC inhib	Env fusion inh	UUG fidelity	eIF4H FP inh	MT1-MMP act inh	MT1-MMP act inh RFP
Cc1ccc(C(=O)OCC(=O)NC(=O)c2cccn2C)cc1	i	0	-7	nt	-9	5	3	2
COc1ccc([N+](=O)[O-])cc1NC(=O)c1ccc(CN(c2ccc(C)c(C)c2)S(C)(=O)=O)cc1	i	-11	36	-12	nt	-2	0	-5
CCn1c(SCC(=O)N2CCOCC2)nnc1-c1cccs1	i	-1	-1	nt	7	-2	5	3
CC(=O)c1cccc(NC(=O)c2ccc(N(Cc3ccccc3C)S(C)(=O)=O)cc2)c1	i	8	5	nt	5	9	-1	-8
Oc1ccccc1-c1csc(-c2ccccc2)n1	i	2	-6	-214	-21	1	-16	-5
CC(C)(C)C1CCC(=NNC(=O)c2cc(-c3ccccc3)n[nH]2)CC1 (centres undefined)	i	2	0	-14	-11	-1	2	8
Cc1cc(C)n(-c2nc(NC(C)C)nc(NC(C)C)n2)n1	i	3	-15	-25	0	4	8	6
O=C(NCc1ccccc1Cl)C1CCN(S(=O)(=O)c2ccc(N3CCCC3=O)cc2)CC1	i	-8	-4	11	-7	0	4	-3
CC/C(=N\NC(=O)Cc1ccc(Br)cc1)c1cccs1	i	-6	-6	-3	-9	0	1	3
COc1ccccc1N(C)S(=O)(=O)c1ccc(C(=O)O)cc1	i	-1	-10	14	5	15	-5	-2

In another format: 2 of the compounds above
COc1ccccc1N(C)S(=O)(=O)c1ccc(C(=O)O)cc1
- Rce1 inhib = i
- PABP FP inh = -1
- CSC inhib = -10
- Env fusion inh = 14
- UUG fidelity = 5
- eIF4H FP inh = 15
- MT1-MMP act inh = -5
- MT1-MMP act inh RFP = -2
O=C(NCc1ccccc1Cl)C1CCN(S(=O)(=O)c2ccc(N3CCCC3=O)cc2)CC1
- Rce1 inhib = i
- PABP FP inh = -8
- CSC inhib = -4
- Env fusion inh = 11
- UUG fidelity = -7
- eIF4H FP inh = 0
- MT1-MMP act inh = 4
- MT1-MMP act inh RFP = -3

(listing goes on)
SMILES	Rce1 inhib	PABP FP inh	CSC inhib	Env fusion inh	UUG fidelity	eIF4H FP inh	MT1-MMP act inh	MT1-MMP act inh RFP
CC1CCN(C(=S)Nc2ccc3nc4n(c(=O)c3c2)CCCCC4)CC1	i	-2	-13	35	-33	-8	0	-6
Cc1ccc(C(=O)OCC(=O)Nc2sc3c(c2C#N)CCCC3)cc1NC(=O)c1ccco1	i	14	9	-33	-5	38	-1	0
CC1CCN(c2ccc3c(c2)S(=O)(=O)c2cccc(C(=O)NCc4ccc(F)cc4)c2C3=O)CC1	nt	nt	0	-8	-21	nt	-111	0
Fc1ccc(-c2nnc(SCc3ncc(-c4ccccc4)o3)n2CC2CCCO2)cc1 (centres undefined)	i	-9	10	-47	-2	-1	-1	1
C#CCOCCOCCOCCNc1nc(N2CCN(C(=O)[C@H](CCCN=C(N)N)n3cc(C(N)[C@H](C)CC)nn3)CC2)nc(N2CCN(C(=O)[C@H](CC(N)=O)n3cc(C(N)[C@@H](C)CC)nn3)CC2)n1 (some centres undefined)	nt	nt	nt	-24	121*	nt	1	4
CCOC(=O)c1c(NC(=O)c2nc3n(n2)C(C(F)F)CC(C)N3)sc2c1CCCC2 (centres undefined)	i	3	49	nt	nt	4	7	0
Nc1nnc(-c2ccccc2)c(-c2ccccc2)n1	i	-3	22	-43	-8	-12	0	4
Cc1nnc(-c2ccccc2)nc1N1CCOCC1	i	?	-10	nt	-18	?	-1	1
CC(C)[C@H](NC(=O)N1c2ccccc2NC(=O)[C@@H]1C(C)C)C(=O)N[C@@H](C(=O)O)c1ccccc1	i	-1	-9	nt	-6	-8	0	3
Cc1cc(NC(=O)CCC(=O)N(C(C(=O)NC(C)(C)C)c2ccccc2Cl)C(C)(C)C)no1 (centres undefined)	i	3	nt	5	-11	-2	-5	-1
O=C(CSc1nc2ccccc2n1-c1ccccc1)NCC1CCCO1 (centres undefined)	i	2	-17	nt	-10	-5	-3	-1
COc1ccc(NC(=O)CS(=O)(=O)c2ccccc2)cc1	i	-2	-4	-45	-13	-17	0	7
CC1CCCC(NC(=O)COC(=O)[C@@H]2CC(O)CN2S(=O)(=O)c2ccc3c(c2)OCCO3)C1C (some centres undefined)	i	-3	20	24	nt	-9	4	5
Cc1cc(-c2ccccc2)n2ncc(C#N)c2n1	i	9	3	-13	-11	-7	nt	nt
CCOC(=O)c1ccc(NC(=O)Nc2ccc(S(N)(=O)=O)cc2)cc1	i	7	-4	nt	nt	2	-1	-6
